Assay outcomes: PubChem BioAssay, several laboratories
Mtb bLac sens: beta-lactam sensitization of Mtb H37Rv; AID 434955; 330,000 compounds, 0.27% hits; M. tuberculosis H37Rv growth with meropenem, percent inhibition; hits of this screen are not shown here; inhibition, % at 25 µM;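 active means about 74% or more and at least 40 points above the plate without the antibiotic, then above 30% in a dose series; inconclusive means first-round hits that could not be retested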;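 further: growth measured after seven days incubation then overnight dye step; 0% = bacteria only wells and 100% = bacteria with antibiotic; twin plates without the antibiotic show which effects depend on it; some results filed as inactive read as strong as hits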
Mtb H37Rv: M. tuberculosis H37Rv growth inhibitors, H37Rv strain (AID 1626). M. tuberculosis H37Rv growth inhibition; higher % means a stronger effect. one-dose inhibition, % at 10 µM; IC50 in µM for titrated hits. 220,000 compounds, 0.95% hits;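 active means confirmed in a dose series; inconclusive means inhibition above 80% but not taken into the dose series; inactive means below 80% or under 30% at every dose of the series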;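 further: bacteria incubated seven days before Alamar blue readout; 0% = bacteria only wells and 100% = bacteria with antibiotic wells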
Arbovirus inh: arbovirus infection inhibition | inhibition, % at 10 µM | AID 1251 | arbovirus infection cell-based antiviral screen | 200,000 compounds, 0.37% hits;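 active means inhibition from about 30%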;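 further: bluetongue infection of BSR cells; cell survival read as ATP light after 72 h; 0% = infected wells without compound and 100% = uninfected wells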
YopH inh: inhibitors of Yersinia enterocolitica YopH tyrosine phosphatase | inhibition, %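 (about 10 µM by stock and volumes)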 | fluorescence Ex485/Em525 | 140,000 compounds, 0.16% hits;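 active means inhibition of 50% or more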;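 further: controls were vehicle for no effect and minimum signal wells for full effect; inactives centre near -20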
RecA intein inh: Mtb RecA intein splicing inhibition. 290,000 compounds, 0.75% hits. cell-free RecA intein splicing, fluorescence. P9WHJ3. inhibition, %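 (about 9 µM by stock and volumes)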; in the data active means inhibition above about 30%; inconclusive means no clear call, values can overlap the other calls;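 further: 0% = vehicle wells and 100% = reference inhibitor control wells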
Target sequence (P9WHJ3 whole entry, looked up): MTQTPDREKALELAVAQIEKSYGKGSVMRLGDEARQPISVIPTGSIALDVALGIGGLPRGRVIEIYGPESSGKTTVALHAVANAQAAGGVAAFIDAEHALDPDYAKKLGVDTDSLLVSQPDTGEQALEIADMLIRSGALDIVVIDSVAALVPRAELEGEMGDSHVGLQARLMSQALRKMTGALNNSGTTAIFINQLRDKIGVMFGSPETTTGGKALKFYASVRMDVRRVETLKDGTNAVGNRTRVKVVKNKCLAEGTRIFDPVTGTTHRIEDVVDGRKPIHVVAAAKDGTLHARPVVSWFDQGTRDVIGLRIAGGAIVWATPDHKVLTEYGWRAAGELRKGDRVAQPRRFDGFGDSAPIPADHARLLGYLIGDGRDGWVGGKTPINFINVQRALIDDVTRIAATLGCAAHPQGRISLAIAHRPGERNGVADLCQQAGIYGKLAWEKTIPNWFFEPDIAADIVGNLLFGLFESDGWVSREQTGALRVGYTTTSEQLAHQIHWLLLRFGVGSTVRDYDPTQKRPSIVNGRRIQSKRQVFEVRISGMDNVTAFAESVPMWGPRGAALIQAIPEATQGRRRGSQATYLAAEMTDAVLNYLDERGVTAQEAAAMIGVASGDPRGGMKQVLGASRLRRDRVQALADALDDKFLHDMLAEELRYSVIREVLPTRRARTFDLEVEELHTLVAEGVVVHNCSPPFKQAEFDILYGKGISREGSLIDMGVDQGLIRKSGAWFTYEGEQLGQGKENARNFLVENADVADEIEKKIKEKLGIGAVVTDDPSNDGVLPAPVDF
Arbovirus inh repeat: further read-out of Arbovirus inh, marked with its call; inhibition, %; measured here: 10K subset replicate screen; many hits read low in the repeat;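 first of two repeat runs on a subset; 0% = infected and 100% = uninfected wells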
Numbers without * were called inactive; ? = inconclusive; · = no result given. This is a subset. The share of hits here may be higher or lower than overall.

The opening 4 records, to show the layout:
SMILES	Mtb bLac sens	Mtb H37Rv	Arbovirus inh	YopH inh	RecA intein inh	others
Cc1cccc(C(=O)N(C)c2nnc(-c3ccncc3)s2)c1	7	8%	·	-29	-2.8
CC(C)(C)NC(=S)/N=C(\N)N[N+](=O)[O-]	3	3%	7	·	-3.9
COc1ccc(N/C=C2\C(=O)c3c(sc(C)c3C)N(C)S2(=O)=O)cc1	-3	-6%	·	·	-6.2
CCc1nnc(SCC(=O)Nc2ccccc2Cl)nc1CC	3	-5%	7	·	·

The whole of this part, from the first entry:
SMILES	Mtb bLac sens	Mtb H37Rv	Arbovirus inh	YopH inh	RecA intein inh	others
Cc1cccc(C(=O)N(C)c2nnc(-c3ccncc3)s2)c1	7	8%	·	-29	-2.8
CC(C)(C)NC(=S)/N=C(\N)N[N+](=O)[O-]	3	3%	7	·	-3.9
COc1ccc(N/C=C2\C(=O)c3c(sc(C)c3C)N(C)S2(=O)=O)cc1	-3	-6%	·	·	-6.2
CCc1nnc(SCC(=O)Nc2ccccc2Cl)nc1CC	3	-5%	7	·	·
Cc1cccc(NC(=O)c2ccccc2NC(=O)c2ccccc2)n1	9	·	·	·	5.4
COc1cccc(/C=N/Nc2ncnc3scc(-c4ccccc4)c23)c1O	99	17%	-27	-28	29
O=C(COC(=O)c1cccc(O)c1)NC(=O)Cc1ccccc1	-24	·	·	·	3.8
O=C(CC1NC(=O)NC1=O)Nc1ccc(Cl)cc1 (stereo not given)	-3	-8%	15	-10	2.5
CCCCn1c(N)c(N(CCC(C)C)C(=O)C2CC(=O)N(c3ccccc3OCC)C2)c(=O)[nH]c1=O (stereo not given)	-11	·	·	·	-1.8
Nc1ccc(S(=O)(=O)C(F)(F)F)cc1N	-11	1%	8	·	-0.5
CCOC(=O)N1CCN(C(=O)C(=O)c2cn(CC(=O)N3CCCCCC3)c3ccccc23)CC1	9	·	·	·	1.0
CC(=O)N1CCOc2ccc(S(=O)(=O)N3CCC(C(=O)Nc4cc(C)cc(C)c4)CC3)cc21	1	·	·	·	-1.6
O=C(CCC(=O)N1CCCC(Nc2ccccc2)C1)c1ccc(F)cc1 (stereo not given)	-8	·	·	·	2.2
CC(CNC(=O)c1cccc(Br)c1)n1cncn1 (stereo not given)	-2	·	·	·	0.5
CCCN1CCC(=O)N([C@H](CSc2ccc(OC)cc2)c2ccccc2)CC1	-9	-5%	·	·	-4.6
O=C1NC(=O)C(Cc2cccs2)C(=O)N1	-8	-8%	-1	-21	-0.2
CC(=O)c1sc(N/N=C/c2cccc(O)c2)nc1C	3	·	0	·	-2.1
CCN(CC)c1ccc(NC(=O)CCS(=O)(=O)c2cccc3nsnc23)c(C)c1	-12	-6%	-8	·	-4.4
CCN1C(=O)[C@@H]2[C@@H](c3ccc(-c4ccc5c(c4)OCO5)c(OC)c3)N3CCCC[C@@]3(C(=O)OC)[C@@H]2C1=O	-5	·	·	·	3.8
Cc1ccc(-c2csc3nc(SCC(N)=O)n(Cc4ccccc4)c(=O)c23)cc1	5	54%	-4	-24	5.0
CCOc1ccc2nc(NC(=O)CSc3nc(SC)ns3)sc2c1	88	3µM*	-14	-24	6.6
Cc1ccc(/C=C2\SC(=S)N(CCC(=O)Nc3cccnc3)C2=O)cc1	?	·	·	·	-0.2
CC1=NN(C(N)=S)C(=O)C1N=Nc1ccc(Cl)cc1 (stereo not given)	65	·	·	·	-1.8
Cc1cc(C(F)(F)F)c(C#N)c(SCC(=O)Nc2nc3ccccc3s2)n1	46	2%	-7	-27	-12
COc1ccccc1C(=O)NC(=O)COc1cc(Cl)ccc1Cl	-2	·	·	·	-1.1
CCOc1ccccc1C(=O)Nc1ccc(S(=O)(=O)Nc2nccc(C)n2)cc1	5	·	·	·	0.6
C=CCNC(=O)c1ccccc1SCc1c(C)noc1C	2	·	·	·	0.3
Cc1nn(-c2ccccc2)c(C)c1C(=O)Nc1nnc(-c2ccco2)o1	94	14µM*	-16	-49	4.2
COC(=O)c1c(-c2cccs2)csc1NC(=O)CSc1ncnc2sc(C)c(C)c12	26	-2%	3	-36	0.7
CC1=C(C(=O)OC(C)C)C(c2cccc(F)c2)n2ncnc2N1 (stereo not given)	-3	1%	5	33	7.2	Arbovirus inh repeat=1
COc1cccc(C(=O)NCC(=O)OCC(=O)C(C)(C)C)c1	1	7%	7	-12	-2.2
CCNC(=S)N(CCc1ccc(S(N)(=O)=O)cc1)C1CC(=O)N(c2ccccc2)C1=O (stereo not given)	-6	-3%	-2	·	4.7
COc1ccc2oc(C(=O)OCC(=O)N(CCC#N)c3ccccc3)c(C)c2c1	-2	·	·	·	-2.9
Cc1ccc(SC(C)C(=O)Nc2c(C)n(C)n(-c3ccccc3)c2=O)cc1 (stereo not given)	-10	-2%	2	-24	0.5
CCN(CC)C(=O)c1ccc(NC(=O)c2cccc(S(=O)(=O)N3CCN(C)CC3)c2)cc1	?	·	·	·	2.6
CCn1nc(C)cc1C(=O)N1CCCC(N2CCN(Cc3ccc4c(c3)OCO4)CC2)C1 (stereo not given)	-3	·	·	·	-0.6
Cc1ccc(CNC(=O)Cn2ccc3cc(S(=O)(=O)N4CCCCCC4)ccc32)cc1	1	·	·	·	-1.0
O=C(CCS(=O)(=O)c1cccs1)Nc1ccc(C(=O)NCc2cccs2)cc1	8	4%	-6	-51	3.5
c1cc(N2CCCC2)ccc1C(c1nnnn1C1CCCCC1)N1CCOCC1 (stereo not given)	4	-2%	-4	-21	0.3
CCS(=O)(=O)N1CCCC(C(=O)N2CCC3(CC2)OCCO3)C1 (stereo not given)	-11	-8%	1	-43	-0.3

Retrieved one by one from the list above:
SMILES	Mtb bLac sens	Mtb H37Rv	Arbovirus inh	YopH inh	RecA intein inh	others
Cc1ccc(/C=C2\SC(=S)N(CCC(=O)Nc3cccnc3)C2=O)cc1	?	·	·	·	-0.2
C=CCNC(=O)c1ccccc1SCc1c(C)noc1C	2	·	·	·	0.3

Carrying on.
SMILES	Mtb bLac sens	Mtb H37Rv	Arbovirus inh	YopH inh	RecA intein inh	others
COc1ccc(Br)cc1S(=O)(=O)NCc1ccccn1	-10	·	·	·	1.5
COCCCNc1ncnc2c1[nH]c1ccccc12	·	·	-1	-32	·
C=CCn1c(C)nc2c(cnn2-c2ccccc2)c1=O	-10	·	·	·	-1.0
O=C(OCC(=O)N1CCCCC1)c1cccc(NS(=O)(=O)c2ccccc2)c1	-14	·	·	·	-5.0
CCc1ccc(C(=O)N2CCCN(C)CC2)s1	-9	·	·	·	1.9
CS(=O)(=O)Nc1ccc(C(=O)Nc2ccccc2Sc2ccccc2)cc1	-4	-1%	13	-23	1.8
Cc1ccc(NC(=O)CC2COc3ccccc3O2)cc1 (stereo not given)	4	2%	12	-6	-0.3
Cc1ccc(OCC(=O)Nc2ccc([N+](=O)[O-])cn2)cc1C	3	8%	·	-33	-1.7
CCOc1ccc(CN2CCN(Cc3ccc(C)o3)CC2CCO)cc1 (stereo not given)	0	-10%	-18	·	2.0
CCN(CC)c1ccc(N=Cc2ccc(N(CC)CC)cc2O)cc1	61	24%	3	-17	-2.0
CC(C(=O)NCC1CCCCC1)N(C)Cc1ccc(Br)cc1 (stereo not given)	10	·	·	·	5.5
Cc1c(C(=O)N2CCC[C@H]2C(N)=O)oc2c(F)cccc12	4	·	·	·	-2.0
CCOc1ccc(S(=O)(=O)NCc2ccc(OC)cc2)c2cccnc12	-4	-4%	5	-25	-1.3
COc1cc(SC)ccc1C(=O)NCC1CCCCC1	11	·	·	·	3.9
c1ccc2sc(NC3=NCN(Cc4ccc5c(c4)OCO5)CN3)nc2c1	99	0%	9	-31	-4.8
CCC(C)NC(=O)C1CCCN(C(=O)Nc2ccc(F)cc2)C1 (stereo not given)	1	-6%	8	-31	-0.8
COc1ccc(S(=O)(=O)Nc2ccccc2C(N)=O)cc1OC	-5	0%	2	·	-0.8
C/C(=N\NC(=O)C1COc2ccccc2O1)c1ccc(N2CCOCC2)cc1 (stereo not given)	-9	8%	-13	·	4.9
CCc1ccc(OCCCC(=O)Nc2cccc(C(=O)O)c2)cc1	-5	-1%	·	·	-3.1
CCC(=O)Nc1ccc(C(=O)N/N=C/c2c(C)[nH]c3ccccc23)cc1	0	0%	-6	·	-3.1

Arranged by length of the SMILES (lowest first): some entries from above.
SMILES	Mtb bLac sens	Mtb H37Rv	Arbovirus inh	YopH inh	RecA intein inh	others
COCCCNc1ncnc2c1[nH]c1ccccc12	·	·	-1	-32	·
Cc1ccc(NC(=O)CC2COc3ccccc3O2)cc1 (stereo not given)	4	2%	12	-6	-0.3
c1ccc2sc(NC3=NCN(Cc4ccc5c(c4)OCO5)CN3)nc2c1	99	0%	9	-31	-4.8

Next part.
SMILES	Mtb bLac sens	Mtb H37Rv	Arbovirus inh	YopH inh	RecA intein inh	others
CCc1nc(C)cn1S(=O)(=O)c1cc(C)c(OC)cc1C	0	1%	7	-34	0.7	Arbovirus inh repeat=0
CC(=O)NN1C(=O)c2ccccc2NC1c1ccccc1F (stereo not given)	-6	·	·	·	-3.3
COc1ccc(C(=O)N2CCCC(CCC(=O)N3CCN(c4ccccn4)CC3)C2)cc1 (stereo not given)	?	·	·	·	0.9
COc1ccc(/C=C/C(=O)N/C(=C\c2ccco2)C(=O)NCCc2nc3ccccc3[nH]2)cc1	6	0%	-10	-18	5.8
O=C(CN1C(=O)COc2ccc(S(=O)(=O)N3CCCC3)cc21)NC1CC1	-1	12%	·	·	-2.9
O=C(CS(=O)(=O)c1ccc(Cl)c(Cl)c1)Nc1ccccc1Cl	-1	3%	3	-25	-0.2
C(=N\n1cnnc1)/c1cccc2ccccc12	-6	5%	6	-42	-1.3
CCOC(=O)c1c(/N=C/c2c(O)n(-c3ccc(F)cc3)c(=S)[nH]c2=O)sc2c1CCCC2	0	·	0	-31	·
C=CCNc1nc2ccccc2nc1NS(=O)(=O)c1cccc(C)c1	?	·	·	·	2.5
c1ccc(Cc2noc(CN3CCN(C4CCc5ccccc5C4)CC3)n2)cc1 (stereo not given)	-10	4%	9	·	-2.5
CCOC(=O)c1ccc(NC(=S)NCc2cccnc2)cc1	-1	-10%	4	·	-1.6
O=C(NCc1ccc(Cl)cc1)C(=O)N/N=C/c1ccc(Br)cc1	0	-2%	-10	·	-0.3
Cc1cccc(C)c1N1CCN(S(=O)(=O)N2CCCCC2)CC1	3	8%	9	·	·
COc1ccc(C(=O)N/N=C(\C)CC(=O)Nc2ccc(Cl)cn2)cc1	-2	-9%	·	·	4.2
Cc1ccc(-n2cnc3sc(C)c(C)c3c2=O)cc1	-10	0%	-7	·	-0.7
OCc1cn(-c2ccccc2)nc1-c1ccc2c(c1)OCCO2	73	2%	-8	-5	2.7
C#CC(CC)(CC)NC(=O)NC1CCCCC1	2	0%	1	·	-0.1
CCN(CC)S(=O)(=O)c1ccc(Cl)c(C(=O)NCc2ccccc2Cl)c1	-12	4%	2	14	0.9
CC(C)N(Cc1ccccc1)C(=O)CN1C(=O)c2ccccc2C1=O	-2	·	·	·	0.4
Cc1cccc2c1cnn2C(=O)Nc1ccccc1Br	1	·	·	·	0.2
O=C(CN1CCCC1)N1CCCC(c2ccc(F)cc2)c2ccc(F)cc21 (stereo not given)	-1	-1%	11	2	-5.8
O=C(NCCNc1ccnc2cc(Cl)ccc12)c1ccccc1F	0	·	·	·	0.4
O=S(=O)(Nc1ccc(C(F)(F)F)cc1)c1cccs1	1	·	·	·	-0.1
COc1ccc(NC(=O)c2cn(CCC#N)nc2-c2cc3ccccc3o2)cc1	0	7%	-7	·	0.5
c1ccc(CNc2nc3ccccc3n3cnnc23)nc1	-5	-9%	4	-46	0.1	Arbovirus inh repeat=2
Cc1ccc(S[C@@H](CCN2CC[C@H](C(C)(C)C)CCC2=O)c2ccccc2)cc1	0	·	·	·	13
Cc1ccc(-c2csc(N(CCO)CCCn3c(C(F)(F)F)nc4ccccc43)n2)cc1	-7	·	·	·	-1.8
O=C1CCc2cc(S(=O)(=O)N3CCCC3C(=O)N3CCN(c4ccccc4F)CC3)ccc2N1 (stereo not given)	-2	-14%	-2	-3	·
COc1ccc(CNC(=O)COC(=O)C2=COCCO2)cc1	70	46%	-4	-6	0.3
O=C(COC(=O)/C=C/c1cccc(F)c1)Nc1ccc2[nH]c(=O)[nH]c2c1	-2	·	·	·	-1.5
CCSc1nnc(-c2c[nH]c3ccccc23)o1	-1	·	·	·	-2.0
COC(=O)c1c(C)oc2ccc(N(C(=O)c3ccncc3)S(=O)(=O)c3ccccc3)cc12	-10	8%	-3	-28	29
COc1ccc(CN2CCN(Cc3cccn3-c3ncccn3)CC2CCO)c(C)c1C (stereo not given)	5	75%	3	·	-0.5
CC(=O)c1cccc(-n2nnnc2SCC(=O)NNC(=O)C(C)C)c1	-3	-6%	-1	·	-1.5
O=C(c1cc(Br)ccc1Cl)N1CCCC1	-7	1%	3	·	0.0
Cc1cc(C(=O)NC2CCCc3c2cnn3-c2cc(F)cc(F)c2)nn1C (stereo not given)	-23	·	·	·	-2.8
